Compound activity as filed in PubChem.
RGS16-Gao HTS: modulators of RGS16 binding to Galphao, primary screen, biochemical, human proteins, multiplexed bead flow cytometry; Regulator of G-protein signaling 16 (Homo sapiens) + Guanine nucleotide-binding protein …; bead-based flow cytometry RGS16-Galphao binding, fluorescence; actives lie on both sides; binding response (% of control), % at 10 µM; 220,000 tested, 0.38% active; AID 1441, 2008;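 active means below 25% or above 175%, edge rows of some plates excepted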;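 further: Galphao activated by GDP with aluminum fluoride before binding; 100% = wells without compound and 0% = beads without RGS; some results beyond the cut were filed as inactive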
INS promoter inh: inhibitors of insulin promoter-driven GFP, primary screen, imaging, TRM-6 cells (human fetal islet line), eGFP reporter, cell count. reporter expression induced with tamoxifen. AID 1273, 2008. inhibition, % at 2 µM. 130,000 tested, 0.9% active;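 active means inhibition above the mean plus 3 SD, with well images judged a real hit on visual review, cut at about 60% in these data, passing the limit was not always enough; inconclusive means inhibition over the cutoff but images rejected on review; inactive means inhibition not above the cutoff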
GALR2 ag: GALR2 receptor agonists, primary screen, cell-based. Galanin receptor type 2 (Homo sapiens), O43603. GALR2-expressing cells, agonist activation read-out. activation, %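 (tested at 5 µM)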. 140,000 tested, 0.48% active. AID 803, 2007;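 active means above mean plus 3 SD of all compounds, about 5% in these data, not always enough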;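 further: 0% = vehicle buffer wells and 100% = reference agonist at full effect; tested in CHO reporter cells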
PKD1 kinase inh: inhibitors of human PKD1 kinase, biochemical, fluorescence polarization | PKD1 kinase fluorescence polarization assay | inhibition, %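 (about 10 µM by stock and volumes)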 | 200,000 tested, 0.056% active | AID 797, 2007;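 active means inhibition of 50% or more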;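 further: controls were vehicle for no effect and a reference inhibitor for full effect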
Target sequence (Q15139 whole entry, looked up): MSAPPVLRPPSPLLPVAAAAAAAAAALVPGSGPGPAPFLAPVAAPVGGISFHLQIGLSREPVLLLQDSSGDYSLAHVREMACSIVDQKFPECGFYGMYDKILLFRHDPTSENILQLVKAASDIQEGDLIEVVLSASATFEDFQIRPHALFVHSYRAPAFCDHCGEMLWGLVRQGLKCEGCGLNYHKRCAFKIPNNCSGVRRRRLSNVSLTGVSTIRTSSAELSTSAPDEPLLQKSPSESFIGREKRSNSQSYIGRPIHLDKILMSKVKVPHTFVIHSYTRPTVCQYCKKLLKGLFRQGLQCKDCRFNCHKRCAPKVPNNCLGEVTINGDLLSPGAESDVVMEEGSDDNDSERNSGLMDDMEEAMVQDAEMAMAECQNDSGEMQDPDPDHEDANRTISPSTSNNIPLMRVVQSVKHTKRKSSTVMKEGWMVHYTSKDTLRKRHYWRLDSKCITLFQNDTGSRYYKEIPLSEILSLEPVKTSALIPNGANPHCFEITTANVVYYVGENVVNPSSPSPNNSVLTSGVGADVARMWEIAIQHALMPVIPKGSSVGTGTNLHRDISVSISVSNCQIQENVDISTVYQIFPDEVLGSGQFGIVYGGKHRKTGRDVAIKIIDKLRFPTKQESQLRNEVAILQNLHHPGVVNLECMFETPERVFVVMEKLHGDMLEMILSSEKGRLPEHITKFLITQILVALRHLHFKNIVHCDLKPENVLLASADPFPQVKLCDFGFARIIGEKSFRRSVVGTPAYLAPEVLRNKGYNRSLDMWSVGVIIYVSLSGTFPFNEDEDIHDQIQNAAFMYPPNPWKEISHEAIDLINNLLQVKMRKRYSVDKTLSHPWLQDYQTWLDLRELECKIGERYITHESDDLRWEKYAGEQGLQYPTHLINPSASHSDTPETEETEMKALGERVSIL
HSV replic up: enhancers of HSV replication in host cells, fold increase, host cell viability; maximum fold increase; HSV replication augmentation in cells; 220,000 tested, 0.005% active;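 active means peak rise of 1.5-fold or more in the series; inconclusive means self-fluorescent or not available for retest; tested in PC3 cells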;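 further: first round at 10 µM; read as green reporter fluorescence; hits show the peak of a series up to 25 µM; 1 = signal of infected wells without compound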
INS promoter inh cell count: also measured in INS promoter inh; calls as there; normalized cell count, %; measured here: cell count, toxicity; reference of the scale not given here;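 cells exposed to compound for 48 h; stained nuclei by imaging scaled within each plate; lower means fewer cells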
HSV replic up primary fold: also measured in HSV replic up; calls as there; fold increase; compound at 10 µM; measured here: primary screen fold increase 10 uM; tested in PC3 cells;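 GFP signal in the first replicate; 1 = infected wells without compound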
* marks the source's active call; other numbers are inactive results; i = inactive; ? = inconclusive; . = no result given; & = joins results of further samples. Rows are unselected; about 1.3% have a hit in one of these screens.

Compound | INS promoter inh cell count | INS promoter inh | GALR2 ag | HSV replic up | RGS16-Gao HTS | PKD1 kinase inh | HSV replic up primary fold
Cc1ccc(NS(=O)(=O)c2cc(C(=O)N(C)C)ccc2C)cc1C | 119 | 7 | . | i | 96 | 2 | 1.2
Cc1cccc(NC(=S)NNC(=O)c2ccc(Br)o2)c1 | . | . | -2.8 | i | 98 | 4 | 1.1
O=C(CSc1nnc2ccccn12)NCCc1ccc(F)cc1 | . | . | . | i | 95 | -3 | 0.93
COc1cc(NC(=O)CSc2nccc(C)n2)c(C(=O)O)cc1OC | 85 | 14 | -1.3 | i | 100 | -5 | 1.1
CCOC(=O)C1(C)NC(c2cccs2)C2C(=O)N(c3ccc(OC)cc3)C(=O)C21 (stereo not drawn) | . | . | . | i | 107 | -7 | 0.94
COC(=O)c1cccc(-n2nnnc2SCC(=O)Nc2cc(C)on2)c1 | 68 | 69 | -2.0 | i | 103 | -11 | 0.92
CC(=O)NCCCCCCNC(C)=O | 149 | 36 | 0.0 | i | 104&101 | 7 | 0.91
CCOC(=O)C1=NN(c2ccccc2)C2C(=O)N(c3ccccc3OC)C(=O)C12 (stereo not drawn) | . | . | . | i | 92 | . | 1.1
NCCCC[C@H]1CNC(=O)C(=O)N1CCc1cc(C(F)(F)F)cc(C(F)(F)F)c1 | . | . | . | i | 106 | . | 0.62
CCOC(=O)C1=C(N)n2c(s/c(=C/c3ccco3)c2=O)=C(C(=O)OC)C1c1ccco1 (stereo not drawn) | 111 | 0 | -1.4 | i | 101 | -7 | 1.3
CC(=Nc1ccc(C)cc1)c1sc2ccccc2c1O | 97 | 26 | -3.3 | ? | 98 | -6 | .
CC1(C)CC(=O)C(Sc2nnc(-c3ccc(NS(C)(=O)=O)cc3)n2Cc2ccco2)C(=O)C1 | 119 | 7 | -0.5 | i | 76 | -10 | 0.95
Nc1nc(F)nc2c1ncn2[C@@H]1O[C@H](CO)[C@@H](O)[C@@H]1O | 145 | 22 | -1.4 | i | . | -2 | 0.57
COc1cccc(OC)c1C(=O)N1CC(C)OC(C)C1 (stereo not drawn) | 115 | -14 | -2.4 | i | 105 | -9 | 0.96
O=C1/C(=C/c2ccccc2)Nc2ccccc21 | 56 | 42 | -1.2 | . | 99 | -1 | .
Cc1cc(C)nc(NC(=NCc2ccc3c(c2)OCO3)NC(=O)Nc2ccccc2)n1 | 72 | 34 | -1.2 | i | 101 | 6 | 0.93
Cc1cc(NC(=O)CN2CCC(C)CC2)no1 | 41 | 0 | . | i | 108 | -8 | 0.99
Oc1ccc(Nc2ccnc3cc(Cl)ccc23)cc1 | . | . | . | i | 106 | . | 0.9
Cc1ccc(N(CC(=O)NC2CCCCC2)C(=O)c2ccc(C)s2)cc1 | . | . | -3.4 | i | 102 | -5 | 1
O=S1(=O)C=CC(N2CCOCC2)C1 (stereo not drawn) | 103 | -36 | -1.9 | i | 111 | -2 | 0.95
O=C1c2cccnc2Oc2ccc(Cl)cc2N1Cc1ccc(F)cc1 | 38 | -9 | -0.9 | i | 41 | -8 | 0.94
Cc1cc(C)c(C(=O)/C=C/c2ccc(C(C)C)cc2)c(=O)[nH]1 | . | . | -0.7 | i | 81 | 12 | 0.76
CN(C)S(=O)(=O)c1ccc(C(=O)NCCSc2ccc(Br)cc2)cc1 | 52 | 14 | -1.1 | i | 54 | 6 | 0.88
COc1ccc(N=C2NC(=O)/C(=C/C=C/c3ccccc3)S2)cc1 | . | . | . | i | 98 | . | 0.75
Cc1ccccc1C(=O)NNC(=O)c1ccc(Br)cc1 | 83 | 14 | . | i | 152 | 7 | 1
COc1cccc2c1OC1(C)CC2NC(=O)N1c1cccc(C(=O)N2CCN(c3ccccn3)CC2)c1 (stereo not drawn) | 101 | -14 | -1.1 | i | 101 | -2 | 1.1
CCN=C(N/N=C/c1ccc([N+](=O)[O-])cc1)SC | 195 | 30 | -2.4 | i | 105 | -2 | 1.1
Cc1ncc(N=Nc2ccc(F)cc2)c(-c2ccc(Cl)cc2)n1 | 128 | 36 | -1.1 | i | 103 | -1 | 0.85
COCC(=O)Nc1cc(C(=O)Nc2ccccc2C)ccc1Cl | 105 | 19 | -2.5 | i | 97 | -8 | 1.2
O=C(COc1ccc2ccccc2c1)NNC(=O)c1ccc([N+](=O)[O-])cc1 | . | . | . | i | 100 | -2 | 0.89

Full records, quoted from the list. Screens in order: INS promoter inh cell count, INS promoter inh, GALR2 ag, HSV replic up, RGS16-Gao HTS, PKD1 kinase inh, HSV replic up primary fold
`O=S1(=O)C=CC(N2CCOCC2)C1` (stereo not drawn) is listed as 103, -36, -1.9, i, 111, -2, 0.95
`Cc1cc(C)nc(NC(=NCc2ccc3c(c2)OCO3)NC(=O)Nc2ccccc2)n1` is listed as 72, 34, -1.2, i, 101, 6, 0.93
`CC(=O)NCCCCCCNC(C)=O` is listed as 149, 36, 0.0, i, 104&101, 7, 0.91
`Nc1nc(F)nc2c1ncn2[C@@H]1O[C@H](CO)[C@@H](O)[C@@H]1O` is listed as 145, 22, -1.4, i, ., -2, 0.57
`CCOC(=O)C1(C)NC(c2cccs2)C2C(=O)N(c3ccc(OC)cc3)C(=O)C21` (stereo not drawn) is listed as ., ., ., i, 107, -7, 0.94

The list continues.
Compound | INS promoter inh cell count | INS promoter inh | GALR2 ag | HSV replic up | RGS16-Gao HTS | PKD1 kinase inh | HSV replic up primary fold
CSc1nc(N(C)NC(=O)c2cccc(C)c2)c2ccccc2n1 | 10 | 11 | 0.5 | i | 100 | -3 | 0.7
CCC1=C(OC(=O)N(CC)CC)N2C(=O)OC(=NCC3CC3)[C@]2(C)[C@H]2C1=CC[C@H]1C(=O)N(C)C(=O)[C@H]12 | . | . | . | i | 108 | . | 0.83
O=C(O)C1C(c2ccccc2)C(C(=O)Oc2ccc(O)cc2)C1c1ccccc1 (stereo not drawn) | . | . | -1.6 | i | 102 | 6 | 0.95
COc1ccc(C(=O)Nc2sc(C)c(C)c2CN2CCOCC2)cc1 | . | . | 0.0 | i | 81 | -22 | 1.1
CCOCCCNc1nc2nc3ccc(C)cn3c(=O)c2cc1C(=O)NCC1CCCO1 (stereo not drawn) | 103 | 48 | . | i | 101 | -1 | 1.1
Cc1nc2ccc(NC(=O)c3cc([N+](=O)[O-])cc([N+](=O)[O-])c3Cl)cc2s1 | . | . | 1.6 | i | 99 | -3 | 1.1
Cc1ccc(C2(C)NC(=O)N(CC(=O)NCCC3=CCCCC3)C2=O)cc1 (stereo not drawn) | 42 | -7 | -0.8 | i | 101 | 2 | 1.1
O=c1cc(Nc2ccc3c(c2)OCCO3)[nH]c(=O)n1C1CCCCC1 | 104 | -21 | -0.8 | i | 100 | -5 | 0.66
CC(C)(C)c1ccc(C(=O)C2CCCN(C(=O)CN3CCCC3=O)C2)cc1 (stereo not drawn) | . | . | . | i | 100 | -3 | 0.87
CC(=O)Nc1cccc(-c2nnc(SCc3ccccc3C#N)n2C)c1 | 124 | -56 | -1.5 | i | 69 | -13 | 0.88
CCC(Sc1ccccn1)C(=O)Nc1nnc(C)s1 (stereo not drawn) | 129 | -20 | -0.4 | i | 113 | -2 | 0.87
CC(=O)NNc1ncnc2c1cnn2-c1ccccc1 | 142 | -70 | . | i | 103 | -6 | 0.94
COc1cccc(/C(O)=C/C(=O)C(=O)Nc2ccc(S(=O)(=O)NC(C)=O)cc2)c1 | 131 | -7 | -2.2 | i | 96 | 2 | 1
CC1CCN(C(=O)c2cc3ccccc3c(=O)o2)CC1 | 144 | 10 | -0.9 | i | 100 | -3 | 0.96
CCN(CC)C(=O)N1CCc2ccccc21 | 111 | -35 | . | i | 98 | -13 | 1.3
COc1cccc(CN(C)Cc2nc(Cc3ccccc3Cl)no2)c1 | . | . | . | i | 98 | 4 | 1.2
OC(COCC(F)(F)C(F)(F)C(F)(F)C(F)F)Cn1c2ccccc2c2ccccc21 (stereo not drawn) | 135 | -33 | -0.1 | i | 103 | -7 | 0.68
CCOc1ccc(-c2cc3cc(OC)c(OC)cc3c(C)n2)cc1 | 110 | 0 | . | i | 107 | -4 | 0.76
O=C(CSc1nnc(NCc2ccccc2)s1)NC1CCS(=O)(=O)C1 (stereo not drawn) | . | . | . | i | 97 | . | 0.95
COc1ccc(S(=O)(=O)Cc2ccc(C(=O)N3CCc4ccccc4C3)o2)cc1 | . | . | -2.3 | i | 71 | 2 | 0.99
COc1cccc(CN(C)CC(=O)Nc2cccc(S(N)(=O)=O)c2)c1OC | 61 | -14 | -1.8 | i | 98 | -9 | 0.98
Cc1[nH]c2ccccc2c1SCC(=O)NC1CCCCC1 | 125 | -45 | . | i | 112 | 0 | 0.9
CCOc1cc(/C=N/NC(=O)CSc2nnc(C)s2)ccc1OCc1ccccc1Cl | 128 | 10 | 0.1 | i | 105 | -5 | 0.96
Cc1cccc(-n2ncc3c(N4CCCc5ccccc54)ncnc32)c1 | 107 | -15 | -0.6 | i | 106 | -4 | 0.78
COC(=O)c1ccccc1NC(=O)CSc1nnc(CNS(=O)(=O)c2ccc(C)cc2)n1C | 66 | -6 | -1.3 | i | 102 | -10 | 0.85
COc1ccc(Cc2nnc(NC(=O)Cc3cccs3)s2)cc1OC | . | . | -1.3 | i | 95 | -6 | 1.1
COc1cc2nc3c4ccccc4n(CC#N)c3nc2cc1OC | . | . | -1.1 | i | 97 | 9 | 0.85
CCSc1nnc(NC(=O)c2ccccc2C)s1 | 82 | 38 | . | i | 99 | 11 | 0.92
CCCCOc1ccc(/C=C/C(=O)Nc2ccc(C(N)=O)cc2)cc1 | 84 | 3 | -1.2 | i | 70 | -12 | 1
O=C(O)c1ccccc1C(=O)c1ccc(Oc2ccccc2)cc1 | 79 | -21 | -1.6 | i | 140 | -4 | 0.94
COC(=O)c1ccc(S(=O)(=O)NC(C)(C)C)n1C | . | . | . | i | 100 | . | 1.2
COC(=O)C1=C(C)N(CC(C)C)C(=O)/C1=C\c1cccs1 | 141 | 0 | 0.3 | i | 109 | -2 | 0.83
c1ccc(C(c2ccccc2)N2CCN(c3ccc4ccccc4n3)CC2)cc1 | 92 | 23 | -1.1 | i | 104 | 0 | 1
CC(=O)Nc1nc(C2COc3ccccc3O2)cs1 (stereo not drawn) | 96 | -71 | -3.4 | i | 103 | 2 | 0.82
CCC(C)(C)n1nnnc1C(c1ccc2ncccc2c1)N1CCN(c2ccc(O)cc2)CC1 (stereo not drawn) | . | . | . | i | 98 | . | 0.92
Cc1ccc(Cn2c(NS(=O)(=O)c3ccccc3)nc3ccccc32)cc1 | 79 | -39 | -3.5 | i | 102 | 14 | 0.73
Cc1nonc1C(=O)N/N=C/c1ccc(O)c(O)c1 | . | . | 0.8 | i | 82 | 12 | 1
N#Cc1ncc(-c2ccc3c(c2)OCCOCCOCCOCCO3)nc1C#N | 98 | -39 | -2.2 | i | 100 | -15 | 0.77
S=c1[nH]cc(-c2ccccc2)n1-c1ccccc1Cl | 88 | 48 | 0.7 | i | 94 | -11 | 1.1
Oc1c(C(c2ccccc2Cl)N2CCCC2)ccc2cccnc12 (stereo not drawn) | . | . | . | i | 103 | -3 | 0.63
CCC(Sc1nc2ccccc2c(=O)[nH]1)C(=O)O (stereo not drawn) | 87 | -16 | -2.8 | i | 100 | -4 | 1.1
Cc1nc2ccccc2nc1CSc1nncs1 | . | . | -0.7 | i | 99 | -4 | 0.9
COc1ccc(OC)c(C2CC(c3ccccc3)=NN2C(=S)Nc2ccccc2)c1 (stereo not drawn) | . | . | . | i | 104 | . | 0.62
CC(=O)Oc1ccc(-c2csc(Nc3ccc(S(N)(=O)=O)cc3)n2)cc1 | . | . | . | i | 177 | 9 | 0.71
O=c1[nH]cnc2c1sc(=S)n2-c1ccccc1 | 103 | -8 | -1.6 | i | 64 | -4 | 0.93
O=C(CN1CCCC1)Nc1ccc(NC(=O)Nc2ccccc2)cc1 | 183 | 16 | 0.0 | i | 105 | -8 | 0.81
O=C(CSc1ncn[nH]1)N1CCN(c2nnc(-c3ccccc3)c3ccccc23)CC1 | 103 | -22 | -2.3 | i | 104 | -2 | 0.82
